Polio RdRp inh – inhibitors of poliovirus RNA polymerase binding and polymerization; 150,000 compounds, 0.66% hits; AID 588519; poliovirus polymerase elongation, fluorescence polarization; hits give low values; % elongation, % (compound at 16.7 µg/mL); in the data active = % elongation below about 90%; note: some results filed as inactive read as strong as hits
Target sequence (P03300 1749-2209 limits assumed): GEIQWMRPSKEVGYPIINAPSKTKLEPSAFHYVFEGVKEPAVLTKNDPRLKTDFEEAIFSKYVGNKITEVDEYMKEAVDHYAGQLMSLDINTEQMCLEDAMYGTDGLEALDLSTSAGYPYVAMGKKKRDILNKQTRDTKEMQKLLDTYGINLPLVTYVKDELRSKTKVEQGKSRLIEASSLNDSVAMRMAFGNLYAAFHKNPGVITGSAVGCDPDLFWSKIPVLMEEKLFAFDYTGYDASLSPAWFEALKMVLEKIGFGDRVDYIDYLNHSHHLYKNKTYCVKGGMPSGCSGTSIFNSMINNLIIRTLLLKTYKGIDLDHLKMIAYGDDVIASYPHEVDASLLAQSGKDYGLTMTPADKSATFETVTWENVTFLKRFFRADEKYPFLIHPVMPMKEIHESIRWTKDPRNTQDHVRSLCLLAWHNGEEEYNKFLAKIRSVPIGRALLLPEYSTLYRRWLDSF
Polio RdRp inh intensity – also measured in Polio RdRp inh; calls as there; % elongation; measured here: total intensity read-out; formula for this scale not given here;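 total fluorescence in place of polarization; lower means less elongation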
Numbers without * were called inactive. A portion of the library. The share of hits here may be higher or lower than overall.

mol	Polio RdRp inh	Polio RdRp inh intensity
CCOc1ccc(CCNC(=O)C2CCC(CNS(=O)(=O)c3ccc(Cl)cc3)CC2)cc1OCC (centres undefined)	101	102
CCc1ccc(CNC(=O)CN2C(=O)C3CCCCN3c3ccc(C(=O)N4CCCC4)cc32)cc1 (centres undefined)	103	111
CCN(C(=O)Cn1c(=O)n(-c2ccccc2)c(=O)c2ccc(C(=O)NCc3ccc4c(c3)OCO4)cc21)c1cccc(C)c1	111	114
NC(=O)C1(N2CCCCC2)CCN(C(=O)Nc2ccc(C(F)(F)F)cc2)CC1	114	112
CCc1ccccc1NC(=O)Nc1cc(C(=O)NCc2ccc(C(C)C)cc2)ccc1N1CCCC1	113	101
CCc1cccc(C)c1NC(=O)c1cc(S(=O)(=O)N2CCCCCC2)cn1C	111	109
CCc1ccc(NC(=O)CSc2cn(CC(=O)N3CCOCC3)c3ccccc23)cc1	113	111
Cc1cc(C(F)F)n2nc(C(=O)Nc3cccc(Cl)c3C)nc2n1	107	112
COc1cc2[nH]c(=O)n(CCCCCC(=O)N3CCN(c4ccc(Cl)cc4)CC3)c(=O)c2cc1OC	100	100
Cc1ccc(NC(=O)c2ccc(CNS(=O)(=O)c3ccc4c(c3)C(C)(C)C(=O)N4C)cc2)cc1	129	123

Remaining list, next part.
mol	Polio RdRp inh	Polio RdRp inh intensity
CCc1ccc2oc(C(=O)Nc3cccc(C(F)(F)F)c3)cc(=O)c2c1	114	115
Cc1ccc(NC(=O)Cn2c(-c3cncs3)nc3ccccc32)c(Br)c1	102	112
Cc1ccccc1C(=O)N(Cc1nc(-c2ccc(Cl)cc2)no1)C(C)C	110	107
COc1ccc(C(=O)N(Cc2ccc(N(C)C)cc2)CC2CCCO2)cc1 (centres undefined)	105	98
O=C(OCc1ccccc1F)c1ccc(-c2nnn(Cc3ccccc3)n2)cc1	106	99
CCCN(CCC)C(=O)C1CCCN(S(=O)(=O)c2cc(Br)cc3c2N(C(=O)CC)CC3)C1 (centres undefined)	103	105
CCn1c(C(=O)NCc2ccccc2Cl)cc2sc(Cl)cc21	113	114
COc1ccc(Cn2ccc3nc(C)c(C(=O)NCc4ccc(SC)cc4)cc3c2=O)cc1	107	115
CCOc1ccc(NC(=O)c2ccc3c(c2)nnn3C2CCCC2)cc1	102	102
Cc1ccc(NC(=O)c2cc(S(=O)(=O)N3CCCC3)c[nH]2)c(C)c1	111	103

Complete entries from above.
Results for COc1ccc(Cn2ccc3nc(C)c(C(=O)NCc4ccc(SC)cc4)cc3c2=O)cc1 → Polio RdRp inh: 107; Polio RdRp inh intensity: 115
Results for NC(=O)C1(N2CCCCC2)CCN(C(=O)Nc2ccc(C(F)(F)F)cc2)CC1 → Polio RdRp inh: 114; Polio RdRp inh intensity: 112

Carrying on.
mol	Polio RdRp inh	Polio RdRp inh intensity
COC(=O)c1ccc(Cn2nnc3c(=O)[nH]c(C4CCCN(S(=O)(=O)c5ccccc5)C4)nc32)cc1 (centres undefined)	112	113
CCn1nnc2cc(C(=O)Nc3cccc(Cl)c3C)ccc21	111	114
Cn1c(=O)c2sccc2n2c(CCCC(=O)Nc3ccc(F)c(F)c3)nnc12	96	98
CCc1ccccc1NC(=O)C1CCN(c2cnccn2)CC1	100	103
O=C(NC1(C(F)(F)F)N=C(c2ccccc2)N(Cc2ccccc2)C1=O)c1ccc(F)cc1 (centres undefined)	104	109
Cc1c(C(=O)N2CCC(C)CC2)c(S(=O)(=O)Nc2ccc(OC(F)(F)F)cc2)c(C)n1C	110	115
COc1ccc(OC)c(C(=O)c2c(N)c(-c3nc(-c4ccc(C)c(C)c4)cs3)c3ccccn23)c1	107	116
CCOc1cccc(C(=O)Nc2nc3c(s2)CC(C(C)(C)C)CC3)c1 (centres undefined)	104	103
CC1CC(=O)N(CC(=O)Nc2ccc(OC(F)(F)F)cc2)c2ccccc2S1 (centres undefined)	109	111
CC(=O)c1ccc(N2CCN(C(=O)Nc3cn(CC(C)C)c(=O)c4ccccc34)CC2)cc1	76*	80*

The list goes on.
mol	Polio RdRp inh	Polio RdRp inh intensity
Cc1c(C(=O)NCCc2ccc(S(N)(=O)=O)cc2)sc2nc3n(c(=O)c12)CCCC3	103	105
COc1cc(C(=O)Nc2cc(C)ccc2OCc2cc(=O)n3cc(C)sc3n2)cc(OC)c1OC	112	114
COc1ccc(NC(=O)CCS(=O)(=O)c2nc(-c3cccs3)cc(C(F)(F)F)n2)cc1OC	107	106
Cc1ccc(-c2nn3c(C)nnc3c3ccccc23)cc1S(=O)(=O)NCCO	101	104
COc1ccc(CNC(=O)C2CCN(Cc3nc(-c4ccc(OC)c(OC)c4)oc3C)CC2)cc1	106	107
CCOC(=O)c1c(-c2ccccc2)oc2ccc(OCc3ccccc3Br)cc12	108	112
CCc1c(C)c2ccc3c(c2oc1=O)CN(Cc1ccccc1)CO3	100	104
COc1ccc(C2=C(C)C(N3CCC(C(=O)Nc4cc(C)ccc4C)CC3)=NS2(=O)=O)cc1	109	115
CCCOc1ccc(C2c3c(oc4ccccc4c3=O)C(=O)N2c2nc(C)c(C(=O)OCC)s2)cc1 (centres undefined)	104	107
Cc1cc(C)c(NC(=O)Cn2c(=O)n(Cc3ccc(C(=O)NCc4ccc5c(c4)OCO5)cc3)c(=O)c3ccccc32)c(C)c1	107	107

Next compounds.
mol	Polio RdRp inh	Polio RdRp inh intensity
COc1ccc(-c2nn(-c3ccc(C)c(Cl)c3)c3c2cnc2cc(OC)c(OC)cc23)cc1	108	95
CCc1ccc(-n2nc3cc(C)c(NC(=O)c4cc(OC)cc(OC)c4)cc3n2)cc1	110	111
Cc1cc(C)c2oc(C(=O)Nc3sc4c(c3C(=O)NCc3ccco3)CCCC4)cc(=O)c2c1	110	117
Cc1ccc(N(Cc2cccs2)C(=O)c2ccccc2[N+](=O)[O-])cc1	110	110
CC(C)c1ccc(NC(=O)CNC(=O)Cn2ccc3ccccc3c2=O)cc1	104	106
O=C(Cc1cccs1)Nc1c(C(=O)Nc2ccc(F)cc2)oc2ccccc12	109	109
Cc1ccc(OC(=O)CSc2nnc(-c3ccc4c(c3)OCO4)o2)cc1	104	100
Cc1ccc(CSc2cn(CC(=O)N3CCCCC3)c3ccccc23)cc1	109	111
O=C(CN1C(=O)COc2ccc(S(=O)(=O)Nc3ccccc3)cc21)NCc1ccccc1Cl	110	114
CCCCn1c(=O)c2oc3ccccc3c2n(Cc2ccc(C)cc2)c1=O	108	111

Going on with the list:
mol	Polio RdRp inh	Polio RdRp inh intensity
CCOC(=O)c1ccc(NC(=O)CC2C(=O)N(c3cccc(OC)c3)C(=O)N2C2CCCCC2)cc1 (centres undefined)	105	108
COc1cc(NC(=O)Nc2nnc(N3CCCCC3)s2)cc(OC)c1	109	110
O=C(Nc1ccc(OC(F)(F)F)cc1)c1cc2c(=O)n3ccccc3nc2s1	106	106
CCOC(=O)C(CC)Sc1c(CC)cnc2c1c(=O)n(C)c(=O)n2C (centres undefined)	108	105
CCc1ccc(C(=O)Nc2ccc3nn(-c4ccc(C)c(Cl)c4)nc3c2)cc1	101	104
COc1ccc(CNC(=O)CN2C(=O)CCn3nc(-c4ccccc4)cc32)c(OC)c1	104	110
O=C(CN1CCN(c2ccc(Cl)cc2)CC1)Nc1ccc(F)c(F)c1	103	95
O=C(Nc1ccc(F)cc1F)c1cc2c(=O)n3ccccc3nc2s1	101	105
COc1cccc(CNC(=O)CCc2cn(Cc3ccccc3Cl)c3ccccc23)c1	106	99
Cc1ccccc1C(=O)Nc1cc2c(cc1N1CCOCC1)n(C)c(=O)n2C	107	108

Next part
Structure,Polio RdRp inh,Polio RdRp inh intensity
CCCNC(=O)C1CCN(c2nc3ccc(C)cc3[nH]2)CC1,104,106
CC(C)CNC(=O)CCSc1nc(-c2ccc3c(c2)OCO3)cc(C(F)(F)F)n1,99,103
COc1ccc(Cl)cc1Nc1ccc2cc(S(=O)(=O)N3CCCCC3)ccc2n1,117,120
Cc1nc2c(-c3ccccc3)c(C)nn2c(C)c1CCC(=O)NCc1ccc(Cl)cc1,110,112
COc1ccc(NC(=O)C(=O)NCC(c2cccnc2)N2CCc3ccccc3C2)cc1 (centres undefined),105,108
COc1cc(CCNC(=O)c2ccc3c(c2)c(C)c(C)n3Cc2cccc(C)c2)cc(OC)c1OC,106,107
O=C(Nc1ccc2[nH]c(=O)c(=O)[nH]c2c1)c1cccc(F)c1,102,94
Cc1ccc(Cl)cc1NC(=O)c1cc(S(=O)(=O)N2CCOCC2)cn1C,109,114
Cc1ccc(OCC(=O)N(Cc2nc(-c3ccccc3)no2)C(C)C)cc1C,104,109
CCOc1ccc(NC(=O)CSc2nnc(-c3ccc(C)cc3)c(-c3ccc(C)cc3)n2)cc1,104,99
O=C(CCC1N=C2c3ccccc3N=C(SCc3ccccc3F)N2C1=O)NC1CCCCC1 (centres undefined),100,100
Cc1cccc(OC(=O)c2cc(-c3ccc4c(c3)OCCO4)on2)c1C,105,104
CCN1c2ccccc2-c2nc(SCC(=O)Nc3c(C)cc(C)cc3C)ncc2S1(=O)=O,108,117
Cc1cc2oc(C(=O)Nc3sc4c(c3C(=O)NCc3ccccc3)CCCC4)cc(=O)c2cc1C,103,105
Cc1ccc(CSc2nc3cccnc3n2Cc2ccc(C(=O)NC3CCCCC3)cc2)cc1,118,114

(listing goes on)
Structure,Polio RdRp inh,Polio RdRp inh intensity
O=c1oc2ccc3ccccc3c2cc1-c1nnc(Nc2ccccc2)s1,110,124
CCc1cccc(N2C(=O)CS(=O)(=O)C23C(=O)N(Cc2ccccc2)c2ccc(C)cc23)c1 (centres undefined),105,103
COc1ccc(CCNC(=O)c2ccc3c(c2)N(Cc2ccc(Cl)cc2)CCS3)c(OC)c1,106,111
COc1ccc(OC)c(NC(=O)c2noc3c2CCCC3)c1,106,108
CCOC(=O)Cc1ccc(NC(=O)N2CCC(CN3CCCCCC3)CC2)cc1,109,115
Cc1ccccc1-c1ccnc2[nH]n(-c3ccccc3)c(=O)c12,103,106
O=C(Nc1ccc2oc(-c3ccc(Cl)cc3)nc2c1)c1ccc2ccccc2c1,102,106
CCOc1ccc(C(=O)NCCn2cc(SCC(=O)NCCc3ccc(OC)c(OC)c3)c3ccccc32)cc1,107,111
COc1ccc(C2CC(=O)c3cc(-c4nc(-c5cccc([N+](=O)[O-])c5)cs4)c(=O)n(-c4ccc(F)cc4)c3C2)cc1 (centres undefined),105,104
O=C1CC(=O)Nc2cc(S(=O)(=O)N3CCOc4ccc(Cl)cc43)ccc2N1,113,111
COc1cc(NC(=O)c2ccc(C)cc2)ccc1NC(=O)c1cc2ccccc2o1,105,107
COc1cc(-c2ccno2)ccc1S(=O)(=O)N1CCN(c2ccc(F)cc2)CC1,113,108
CCOc1ccc(C(=O)Nc2ccc(-c3nc4cc(C)ccc4o3)cc2)cc1,111,111
COc1ccc(N2CCN(C(=O)CCCCn3c(=O)[nH]c4ccsc4c3=O)CC2)cc1,107,105
CCn1cc2nc(SCC(=O)Nc3ccccc3F)n(Cc3ccc(C)cc3)c(=O)c2n1,99,104

In a second layout: results already given
COc1cc(-c2ccno2)ccc1S(=O)(=O)N1CCN(c2ccc(F)cc2)CC1
  Polio RdRp inh: 113; Polio RdRp inh intensity: 108

O=C1CC(=O)Nc2cc(S(=O)(=O)N3CCOc4ccc(Cl)cc43)ccc2N1
  Polio RdRp inh: 113; Polio RdRp inh intensity: 111

COc1cc(NC(=O)c2ccc(C)cc2)ccc1NC(=O)c1cc2ccccc2o1
  Polio RdRp inh: 105; Polio RdRp inh intensity: 107

O=c1oc2ccc3ccccc3c2cc1-c1nnc(Nc2ccccc2)s1
  Polio RdRp inh: 110; Polio RdRp inh intensity: 124

For reference, part of the list above:
Structure,Polio RdRp inh,Polio RdRp inh intensity
CCc1ccc(-n2nc3cc(C)c(NC(=O)c4cc(OC)cc(OC)c4)cc3n2)cc1,110,111
Cc1cc(C)c2oc(C(=O)Nc3sc4c(c3C(=O)NCc3ccco3)CCCC4)cc(=O)c2c1,110,117

Next part
Structure,Polio RdRp inh,Polio RdRp inh intensity
COc1cc(Cl)c(NC(=O)C(NS(=O)(=O)c2cccs2)C(C)C)c(OC)c1 (centres undefined),107,112
COc1ccc(C(CC(=O)Nc2ccc(F)c(Cl)c2)N2Cc3ccccc3C2=O)cc1OC (centres undefined),108,110
Cc1cc(C)n(-c2nnc(Nc3cc(Cl)ccc3C)c3ccccc23)n1,101,99
O=C(NCc1ccccc1Cl)C(=O)NCC(c1ccco1)S(=O)(=O)c1cccs1 (centres undefined),113,113
COc1ccc2nc(NC(=O)c3nc(SCc4cccc(C)c4)ncc3Cl)sc2c1,103,101
CCOC(=O)c1ccc(NC(=O)C2CCN(C(=O)N3CC(C)Oc4ccc(C)cc43)CC2)cc1 (centres undefined),100,103
CCN(C(=O)c1sc2nc3n(c(=O)c2c1C)CCCCC3)c1ccc(OC)cc1,111,112
O=S(=O)(Nc1cccc(-c2ccc(N3CCOCC3)nn2)c1)c1ccccc1C(F)(F)F,106,114
COC(=O)c1c(NC(C)=O)c2c3c(sc2n1Cc1cc(C)ccc1C)CCCC3,106,110
COc1ccc(Cl)cc1S(=O)(=O)Nc1ccc2c(c1)n(C)c(=O)n2C,103,111
COc1ccc2ncc3c(-c4ccc(C)c(C)c4)nn(CC(=O)NC4CCCCC4)c3c2c1,106,114
Cc1cccc(-c2noc(-c3ccc(NCc4cccnc4)c([N+](=O)[O-])c3)n2)c1,107,115
CC(C)Nc1ccc(-c2nc(-c3ccncc3)no2)cc1[N+](=O)[O-],110,106
O=C(Cn1cc(C(=O)c2ccccc2)c2ccccc21)Nc1ccc(Br)cc1,101,102
COc1ccc(CNC(=O)c2ccc(Cn3c(=O)c4cccn4c4cccnc43)cc2)c(OC)c1,109,105

The results go on:
Structure,Polio RdRp inh,Polio RdRp inh intensity
CN1C(C(=O)c2ccccc2)=C(NC(=O)c2ccc(F)cc2)c2ccccc2S1(=O)=O,103,101
CCN1C(=O)c2ccccc2S(=O)c2ccc(C(=O)NCc3ccc(F)cc3)cc21 (centres undefined),108,105
COc1ccc(CCNC(=O)CCCn2c(=O)c3ccccc3n(CC(=O)Nc3ccccc3C)c2=O)cc1OC,106,110
CC1=C(C(=O)Nc2ccccc2C)C(c2cccnc2)n2nc(SCc3ccccc3)nc2N1 (centres undefined),100,108
CCOC(=O)Cn1cnc2onc(-c3ccc(F)cc3)c2c1=O,106,104

Screening data from PubChem.
